AF4-AF9 inh: inhibitors of AF4 peptide binding to AF9, primary screen, biochemical, AlphaScreen, biotin-AF4 peptide, FLAG-AF9, single point; inhibition, % at 10 µM; 350,000 tested, 0.47% active;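 active = every replicate reaching a set inhibition limit, whatever the replicate mean, cut at about 25% in these data; inconclusive = mean inhibition reaches that limit but some replicates miss it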;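 note: 0% = plate neutral control median and 100% = total signal loss; the record names both 10 and 1 µM as test concentration; the first replicate is given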
RanGTP-Imp inh: inhibitors of RanGTP-importin-beta interaction, primary screen, biochemical, FRET, CFP-Ran, YFP-importin-beta, homogeneous | Ran GTPase (GTP-bound) - importin-beta complex | cell-free CFP-Ran/YFP-importin-beta FRET ratio | inhibition, % (no concentration beside the values) | 300,000 tested, 1.1% active | AID 2216, 2009;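 active = most replicates above 15%; inconclusive = exactly half above 15%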;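 note: 0% = DMSO wells and 100% = Ran loaded with GDP instead of GTP; wells of about 40 µL received 100 nL stock; the first replicate is given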
UCH37 inh: inhibitors of human UCH37 deubiquitinase, primary screen, biochemical, Ub-AMC cleavage, fluorescence; Ubiquitin carboxyl-terminal hydrolase isozyme L5 (Homo sapiens), Q9Y5K5; purified proteasome/UCH37; inhibition, % (no concentration beside the values); 330,000 tested, 0.33% active;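 active = mean of two replicates above 20%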;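 note: 0% = compound-free wells with enzyme and 100% = wells lacking proteasome; stock transfer was 100 nL into about 20 µL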
Target sequence (Q9Y5K5 whole entry, looked up): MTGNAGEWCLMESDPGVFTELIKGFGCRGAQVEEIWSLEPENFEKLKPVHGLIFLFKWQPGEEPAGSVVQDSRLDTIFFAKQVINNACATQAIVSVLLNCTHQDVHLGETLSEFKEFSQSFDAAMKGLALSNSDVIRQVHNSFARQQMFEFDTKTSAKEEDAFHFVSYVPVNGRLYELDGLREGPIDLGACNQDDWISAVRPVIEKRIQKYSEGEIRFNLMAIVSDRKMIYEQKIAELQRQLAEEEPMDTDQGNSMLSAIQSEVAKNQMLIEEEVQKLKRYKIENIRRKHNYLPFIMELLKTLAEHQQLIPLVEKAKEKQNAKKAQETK
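Test system – human UCH37 enzyme supplied as purified proteasome complex · Incubation – 30 min preincubation with enzyme, 25 min cleavage at room temperature · Detection – AMC fluorescence from Ub-AMC cleavage, excitation 355 nm, emission 460 nm · Benchmarks – no-proteasome wells (full inhibition) and compound-free wells (no inhibition)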
E coli growth: E. coli growth inhibition, primary screen, OD600; AID 1053175, 2014; OD600 absorbance (no concentration beside the values); 330,000 tested, 0.21% active; Escherichia coli growth, 23 h; active compounds read low;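 active = OD600 absorbance below the run mean of sample wells minus 3.6 SD, in any replicate, cut at about 0.56 in these data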;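 note: stock transfer was 300 nL into about 60 µL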
FGF22 binding: binders of human FGF22 protein, primary screen, FGF22 synaptogenesis inhibitor project, biophysical, thermal shift, single point; calls only at 9.99 µM; recombinant FGF22 thermal shift, SYPRO orange fluorescence; percent of sucrose octasulfate shift, DMSO zero; 340,000 tested, 1.5% active; Fibroblast growth factor 22 (Homo sapiens), Q9HCT0;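 active = melting point raised past a set limit in the mean and every replicate; inconclusive = no clear call; three in four hits are not shown here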
Target sequence (Q9HCT0 whole entry, looked up): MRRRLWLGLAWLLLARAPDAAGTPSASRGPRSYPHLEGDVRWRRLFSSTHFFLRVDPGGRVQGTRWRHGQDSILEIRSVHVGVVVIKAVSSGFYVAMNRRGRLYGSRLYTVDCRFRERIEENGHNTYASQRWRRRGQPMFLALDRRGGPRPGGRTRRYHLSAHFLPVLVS
Vif TR-FRET: inhibitors of Vif binding to APOBEC3G peptide, primary screen, biochemical, TR-FRET, GST-Vif 1-94, biotin-A3G peptide, dose response retest (AID 1117319) | Virion infectivity factor (Human immunodeficiency virus type 1 group M subtype B (isolate … | TR-FRET GST-Vif / biotin-A3G peptide binding; higher % means a stronger effect; test concentration not given here; strong numbers were not always called active | one-dose inhibition, %; IC50 in µM for titrated hits | 260,000 tested, 0.57% active;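 active = above the screen mean plus three standard deviations and confirmed in dose response; inconclusive = results disagree or hit not tested in dose response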;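 note: Vif residues 1-94 fused to GST binding biotinylated APOBEC3G peptide 110-148; 0% = full assay without inhibitor and 100% = GST in place of GST-Vif; retest series ran down from 100 µM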
HNF4A DNA FP: change in binding of human HNF4A to DNA, primary screen, biochemical, fluorescence polarization, FITC-DNA; 1 h; 360,000 tested, 0.3% active; activity change, % at 10 µM; in the data active = activity change above about 30%, passing the limit was not always enough;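 note: controls were the assay level and a saturating level of protein; the project sought stronger binding though the title names inhibitors; some compounds called inactive have numbers as strong as hits; positive values seem to mean higher polarization but the record does not say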
Target sequence (P41235 whole entry, looked up): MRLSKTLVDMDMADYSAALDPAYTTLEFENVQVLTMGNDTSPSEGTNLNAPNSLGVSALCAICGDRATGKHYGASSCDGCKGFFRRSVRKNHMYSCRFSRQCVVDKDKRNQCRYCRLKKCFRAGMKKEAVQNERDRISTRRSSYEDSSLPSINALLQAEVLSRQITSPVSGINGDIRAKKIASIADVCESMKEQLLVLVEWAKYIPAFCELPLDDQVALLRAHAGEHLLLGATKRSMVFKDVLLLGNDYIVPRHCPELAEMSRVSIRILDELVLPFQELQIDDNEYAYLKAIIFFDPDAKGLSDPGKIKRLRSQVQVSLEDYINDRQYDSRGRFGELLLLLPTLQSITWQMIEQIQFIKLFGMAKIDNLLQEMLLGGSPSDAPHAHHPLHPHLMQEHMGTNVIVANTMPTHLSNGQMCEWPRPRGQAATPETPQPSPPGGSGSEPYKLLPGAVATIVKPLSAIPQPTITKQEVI
* = called active by the depositor; i = inactive; u = inconclusive; x = not tested or not shown; & = joins results of further samples. An excerpt (hit frequency here may not be typical).

SMILES	AF4-AF9 inh	RanGTP-Imp inh	UCH37 inh	E coli growth	FGF22 binding	Vif TR-FRET	HNF4A DNA FP
CCc1ccc(NC(=O)CSc2nccn(-c3ccc4c(c3)OCCO4)c2=O)cc1	1.5	2.8	-3.1	0.65	i	5%	-1.4
CSc1ccc(/C=N\NC(=O)COc2ccc(Cl)cc2Br)cc1	x	5.4	x	x	x	1%	3.1
CC1(c2nnc(-c3ccncc3)o2)CC(c2ccc(Cl)cc2)=NO1 (stereo not given)	21	1.5	-1.2	0.68	i	x	-1.6
Cc1csc(N/N=C/c2ccc(O)c([N+](=O)[O-])c2)n1	x	-3.5	x	x	x	u	-7.8
CC(=O)C1=C(O)CCCC1=NCc1nc2ccccc2[nH]1	4.0	2.0	-0.7	0.72	i	x	0.5
CCCC(=O)Nc1ccc(C(=O)NNC(=O)COc2ccc(Br)c(C)c2)cc1	-2.4	0.0	3.5	0.64	i	-7%	-4.5
CCCn1nc(C(=O)NNC(=O)c2ccc(OC(F)F)cc2)c2ccccc2c1=O	0.0	x	-0.8	0.65	i	x	2.7
CC(=O)c1c(C)[nH]c(C(=O)OCC(=O)N(C)c2c(N)n(Cc3ccccc3)c(=O)[nH]c2=O)c1C	3.2	x	0.4	0.68	i	2%	3.3
CN(C)S(=O)(=O)c1cccc(NC(=O)COc2ccc(C(=O)c3ccccc3)cc2)c1	2.0	-0.2	-1.0	0.71	i	x	3.6
O=C(O)COCC(=O)Nc1ccc2c(c1)CCC2	x	u	4.4	0.65	x	-3%	2.8
COc1ccc(S(=O)(=O)NCCOc2ccccc2)cc1C	-2.0	-3.3	1.2	0.65	i	19%	1.6
O=C(NNc1ccc([N+](=O)[O-])cc1)c1ccccc1F	-1.4	x	12	0.71	i	10%	5.2
CCCCCn1c(=O)[nH]c2cc(C(=O)Nc3ccc(OC)cc3)ccc2c1=O	x	-3.2	-1.6	0.71	x	x	1.9
COc1ccc(C2NC(=O)c3ccccc3N2)c(OC)c1OC (stereo not given)	0.8	x	x	x	i	-2%	-3.1
O=C(CCCSc1nnnn1-c1cccc2ccccc12)c1ccc(F)cc1	x	1.3	0.7	0.75	x	6%	4.0
Cc1cccc(C(=O)Nc2cccc(OCC(=O)O)c2)c1	-0.8	9.0	2.7	0.68	i	u	-1.9
N#CCC(=O)Nc1ccc(C(=O)OCC(=O)NC2CCCc3ccccc32)cc1 (stereo not given)	-0.3	x	2.4	0.69	i	x	3.3
CCOC(=O)c1cc(C)sc1NC(=O)C1CCC1	x	-0.1	0.5	0.7	x	u	3.7
Cc1c(C)n(-c2ccccc2)c2ncnc(NCCCN(C)C)c12	9.5	4.8	0.2	0.66	i	-3%	3.0
CCCCn1c(N)c(N(CC)C(=O)/C=C/c2ccco2)c(=O)[nH]c1=O	-4.2	-1.9	4.2	0.69	i	-8%	3.0
CCOc1ccc(OCC)c(NC(=O)C2CCCN(S(=O)(=O)c3cccs3)C2)c1 (stereo not given)	x	x	x	0.7	x	1%	4.5
COc1cccc(C(=O)NCC2(c3ccccc3)CCCC2)c1OC	0.4	1.8	1.4	0.7	i	-3%	2.5
COCCn1c(=O)[nH]c(=O)c2c1nc(-c1cc(Br)c3c(c1)OCO3)n2Cc1ccccc1	-1.5	1.2	0.0	0.72	i	4%	1.9
Cc1ccc(NS(=O)(=O)c2ccc(-c3cnc(C4CC4)o3)cc2)cc1	3.3	5.1	0.0	0.68	i	x	2.7
CCOc1ccc(C(=O)NCC(=O)OCC(=O)N2C(C)CCCC2C)cc1 (stereo not given)	x	4.4	1.1	0.67	x	17%	-0.1

3 successive compounds out of the list so far, quoted:
SMILES	AF4-AF9 inh	RanGTP-Imp inh	UCH37 inh	E coli growth	FGF22 binding	Vif TR-FRET	HNF4A DNA FP
COCCn1c(=O)[nH]c(=O)c2c1nc(-c1cc(Br)c3c(c1)OCO3)n2Cc1ccccc1	-1.5	1.2	0.0	0.72	i	4%	1.9
Cc1ccc(NS(=O)(=O)c2ccc(-c3cnc(C4CC4)o3)cc2)cc1	3.3	5.1	0.0	0.68	i	x	2.7
CCOc1ccc(C(=O)NCC(=O)OCC(=O)N2C(C)CCCC2C)cc1 (stereo not given)	x	4.4	1.1	0.67	x	17%	-0.1

Back to the main list, repeating the 3 entries before the break.
SMILES	AF4-AF9 inh	RanGTP-Imp inh	UCH37 inh	E coli growth	FGF22 binding	Vif TR-FRET	HNF4A DNA FP
COCCn1c(=O)[nH]c(=O)c2c1nc(-c1cc(Br)c3c(c1)OCO3)n2Cc1ccccc1	-1.5	1.2	0.0	0.72	i	4%	1.9
Cc1ccc(NS(=O)(=O)c2ccc(-c3cnc(C4CC4)o3)cc2)cc1	3.3	5.1	0.0	0.68	i	x	2.7
CCOc1ccc(C(=O)NCC(=O)OCC(=O)N2C(C)CCCC2C)cc1 (stereo not given)	x	4.4	1.1	0.67	x	17%	-0.1
COC(=O)c1cc(COC(=O)c2nc3nc(C)cc(C)n3n2)oc1C	-3.4	4.1	3.6	0.69	i	x	2.0
COc1ccc(N(CC(=O)NC2CCCC2)C(=O)Cn2nnc(-c3ccc(C)o3)n2)cc1	-1.4	2.4	2.4	0.7	i	x	5.5
N=C1c2ccccc2CN1NC(=O)COc1ccc(Cl)cc1	-0.9	x	5.9	0.65	i	-1%	-0.8
O=C(COc1ccc(Cl)cc1Br)N1CCN(c2ccccc2)CC1	x	1.8	1.5	0.73	x	u	-1.6
O=C1CSC(=NC2CCCCC2)N1	x	-1.2	-0.7	0.67	x	0%	4.3
O=C(COC(=O)Cn1nc(-c2ccccc2)oc1=O)Nc1ccc(F)cc1	-0.8	x	1.4	0.72	i	-10%	-1.8
Cc1ccc(Nc2nc(CSc3nnc(-c4ccccc4C)n3C)cs2)cc1	x	0.9	3.3	0.65	x	x	3.8
O=C1CC(N2CCSCC2)C(=O)N1c1ccc(Br)cc1 (stereo not given)	-1.7	-2.2	6.2	0.64	i	-1%	4.2
CC[C@H](C)[C@H](NC(=O)c1ccc(Cl)cc1)C(=O)OCC(=O)c1ccc2c(c1)NC(=O)CO2	x	u	2.1	0.73	x	12%	0.8
CCOc1cc(/C=C2\CCCc3c2nc2ccccc2c3C(=O)O)ccc1OC	3.8	47*	x	x	i	x	-88
CCOC(=O)c1cc(-c2ccncc2)nc2c1c(C)nn2-c1ccccn1	x	1.0	-27	0.71	x	4%	0.4
Cc1ccnn1Cc1cc(C(=O)O)c2ccccc2n1	-2.6	-3.8	2.8	0.7	i	-14%	-1.9
CCn1c(COc2ccc(=O)n(-c3ccccc3)n2)nnc1SCc1cccc(OC)c1	x	-0.9	-4.1	0.64	x	0%	-1.1
CCOC(=O)Cc1csc(NC(=O)Cc2ccc(C)cc2)n1	-2.5	0.1	0.5	0.73	i	-5%	4.5
O=S1(=O)CCN(CCc2ccccc2)CC1	-3.0	x	x	x	i	-3%	-1.7
O=C(Nc1ccc(Cl)cn1)C1CCCN(c2ncnc3c2nc2n3CCCCC2)C1 (stereo not given)	0.1	3.5	5.7	0.71	i	1%	2.5
C[C@H]1CN([C@@H](C)CO)C(=O)CCCn2cc(nn2)CO[C@@H]1CN(C)S(=O)(=O)c1cccc(C#N)c1	-1.8&-2.1	x	x	x	i	x	4.6
CC(=O)c1cc2c(cc1NC(=O)c1ccc(-n3nc(C)cc3C)cc1)OCO2	0.5	x	x	x	i	x	2.5
O=[N+]([O-])c1ccc(Nc2ccc(F)cc2)cc1	3.5	-4.1	3.2	0.64	i	1%	-0.6
COc1ccc(-c2nc3oc4cc(OC)ccc4c(=O)c3c(=O)n2Cc2ccco2)cc1	x	1.3	-27	0.67	x	99µM*	-1.6
Cc1c(Br)c([N+](=O)[O-])nn1CCCC(=O)Nc1sc2c(c1C#N)CCC2	x	-0.7	1.4	0.66	x	x	1.8
CC(c1nccs1)N(C)C(=O)CCc1nnc(-c2ccc(-c3ccccc3)cc2)o1 (stereo not given)	x	7.8	6.0	0.7	i	1%	-4.1
Cc1cc(C)nc(NS(=O)(=O)c2ccc(NC(=O)c3ccccc3C)cc2)n1	0.6	2.2	5.3	0.7	i	-4%	-3.2
CC1(C)CC(c2nc(-c3ccccc3)cs2)CCS1 (stereo not given)	-3.1	-4.1	3.7	0.71	i	0%	17
COc1ccc(-c2cc(NC(C)=O)c3ncc(-c4cc(OC)c(OC)c(OC)c4)n3c2)cn1	1.5	x	x	x	i	x	2.7
(further entries)
SMILES	AF4-AF9 inh	RanGTP-Imp inh	UCH37 inh	E coli growth	FGF22 binding	Vif TR-FRET	HNF4A DNA FP
COc1ccc(/C(C)=N/NC(=O)c2cc(-c3cccnc3)nc3ccccc23)cc1	-5.3	u	x	x	i	2%	3.2
COc1ccc(-c2[nH]c(-c3ccccc3)nc2SCC(=O)NC2CCCC2)cc1	11	0.2	-3.7	0.69	i	x	-2.5
CN1CCN(c2ccc(C(=O)c3ccc(F)cc3)cc2)CC1	x	1.2	2.4	0.68	x	-8%	4.3
O=C(Nc1ccc(N2CCCC2)cc1)c1cccc(-c2cc3ccccc3oc2=O)c1	14	0.6	-2.2	0.72	i	10%	2.3
Cc1ccc(NCc2ccc([N+](=O)[O-])s2)cc1	8.9	2.6	2.6	0.63	i	x	-0.4
COCCn1c(SCC(=O)N2CC(C)OC(C)C2)nc2c([nH]c3ccccc32)c1=O (stereo not given)	0.0	2.0	-20	0.71	i	x	2.6
CC1SCC(=O)N(CC(=O)NC2CCCCC2)C1=O (stereo not given)	1.3	1.2	1.9	0.72	i	x	-2.3
OCCNCC(O)CN1c2ccccc2Sc2ccccc21 (stereo not given)	9.6	1.2	2.1	0.59	i	x	1.4
COc1ccc(OC)c(NC(=O)CSc2nnc(CNC(=O)c3cccs3)o2)c1	-5.4	-0.9	2.1	0.65	i	x	2.4
CNC(C)C#Cc1c(-c2cc(OC)c(OC)c(OC)c2)noc1C (stereo not given)	3.8	6.0	2.5	0.65	i	x	-0.8
Cc1cccc(NC(=O)Nc2nnc([C@H]3C[C@H](O)[C@@H](CO)O3)s2)c1	0.5	x	x	x	i	x	-2.8
Cc1ccc(NC2=CC(=O)CCC2)cc1C	x	-13	0.1	0.67	x	4%	-1.7
COc1ccc(CCC(=O)Nc2ccc(Cl)c(S(=O)(=O)N3CCCC3)c2)cc1	-1.4	-2.3	2.4	0.72	i	12%	-4.3
Cc1c(NC(=O)C(C)n2cc([N+](=O)[O-])cn2)c(=O)n(-c2ccccc2)n1C (stereo not given)	-0.5	2.9	0.2	0.72	i	-4%	-0.4
Nc1ccc(CNc2ncn[nH]2)cc1	-1.9	4.6	0.1	0.71	i	0%	-2.6
CCCc1nc2oc3c(NCC(C)O)ncnc3c2c2c1CCCC2 (stereo not given)	0.2	-3.4	-13	0.68	i	x	-1.0
CCn1c(COC(=O)CNC(=O)c2ccccc2F)nc2cc(S(=O)(=O)N(C)C)ccc21	-0.9	-0.3	0.3	0.64	i	2%	-3.0
CCN(CC)C(=O)N1CCn2c(nc3ccccc32)C1	x	-5.0	0.8	0.7	x	4%	0.4
Oc1ccc(Br)cc1-c1n[nH]c(=S)n1Cc1ccccc1	-0.2	4.1	6.1	0.67	i	9%	1.6
Cc1cccn2c(=O)c3cc(C(=O)O)n(C)c3nc12	x	-1.1	x	x	x	4%	-4.1
CCOc1cc(C(=S)N2CCN(C)CC2)ccc1OCC(=O)N1CCOCC1	x	2.1	0.3	0.73	x	-4%	1.0
O=C(NCCc1cccs1)c1ccc(Cl)cc1	-0.8	1.4	2.1	0.68	i	13%	5.6

Compound activity from PubChem BioAssay.
